UUG fidelity = modulators of start codon recognition fidelity in yeast | S. cerevisiae UUG-firefly luciferase reporter, luminescence/redox ratio | 0.13% of 350,000 active | activity score, % at 18.7 µM;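 active = replicate mean at a twofold rise or more, about +100% in these data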;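 note: firefly luciferase made from a UUG start codon reports start codon fidelity; reporter light over untreated wells divided by growth signal over untreated wells; some hits fall short of that in this replicate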
MT1-MMP act inh = blocks activation of human MT1-MMP | GFP/RFP ratio change, % at 20 µM | AID 651647 | 0.061% of 360,000 active | HT1080 RFP-PRO-GFP cells, GFP/RFP ratio fluorescence, overnight; percent of plate control window, DMSO zero;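 active = GFP/RFP ratio change of at least 30% with cell ATP level not reduced by more than half and red fluorescence within 50% of control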; note: strong numbers were not always called active
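Compound: 20 µM single dose, 1% DMSO / System: HT1080 RFP-PRO-GFP cells / Controls: DMSO and RFP-L50D-GFP cell wells / Read-out basis: GFP/RFP fluorescence ratio / Schedule: overnight compound exposure at 37 °C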
CSC inhib = blocks cancer stem cells. inhibition, % at 7.5 µM. 1.1% of 300,000 active. cancer stem cell-like cells viability, luminescence;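 active = mean at 75% or more and at least half the replicates too; inconclusive = mean and replicates disagree; tested in HMLE shEcad cells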;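 note: 0% = median of negative and 100% = median of positive control wells; the first replicate is given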
Rce1 inhib = blocks yeast Ras-converting enzyme. Q03530. yeast membranes, quenched prenylated peptide cleavage fluorescence. calls only. 0.27% of 290,000 active. AID 2563;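 active = fall in fluorescence gain of 50% or more versus controls, with final raw signal at or below 3038400; inconclusive = same 50% fall but final raw signal above 3038400; inactive = fall in fluorescence gain under 50%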;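 note: plate controls were neutral control wells for no effect and wells lacking membranes for full effect; tested at 10 µM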
Target sequence (Q03530 whole entry, looked up): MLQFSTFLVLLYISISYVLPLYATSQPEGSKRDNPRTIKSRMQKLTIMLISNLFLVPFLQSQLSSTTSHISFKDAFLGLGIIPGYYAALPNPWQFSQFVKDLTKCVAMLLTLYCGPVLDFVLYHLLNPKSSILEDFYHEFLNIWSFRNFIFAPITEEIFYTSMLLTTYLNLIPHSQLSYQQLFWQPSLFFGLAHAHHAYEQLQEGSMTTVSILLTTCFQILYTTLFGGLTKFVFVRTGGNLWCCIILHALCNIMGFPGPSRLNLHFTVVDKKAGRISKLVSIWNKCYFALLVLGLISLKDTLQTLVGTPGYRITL
Env fusion inh = blocks HIV Env-driven cell-cell fusion. inhibition, % at 12.3 µM. HeLa-JRFL Env/CEM21 cell fusion, luciferase. 1.1% of 360,000 active;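 active = mean replicate inhibition score of at least 50 and every replicate individually at or above 50; inconclusive = only one of the two criteria met; inactive = mean below 50 and not all replicates reaching 50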;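 note: 0% = plate neutral controls and 100% = maraviroc near 300 nM; one replicate is shown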
PABP polyA inh = PABP-poly(A) binding inhibition. inhibition, % at 35 µM. PABP-poly(A) RNA binding, fluorescence polarization. P11940. 1% of 290,000 active;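 active = 50% or more with normal probe brightness, or confirmed in later tests; inconclusive = above 50% with abnormal brightness, or retests that disagree; inactive = below 50% or failed in later tests; about a fifth of its hits are not listed in these tables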;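 note: calls also rest on retests at 20 µM and on dose response follow-up; controls were probe without protein and protein plus probe with vehicle; some compounds called inactive have numbers as strong as hits; many hits fall short of the cut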
eIF4H inh = inhibitors of RNA binding by human eIF4H; Q15056; eIF4H fluorescence polarization binding assay; inhibition, % at 35 µM; 0.94% of 290,000 active; AID 2012;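 active = 50% or more with normal probe brightness, or confirmed in later tests; inconclusive = above 50% with abnormal brightness, or retests that disagree; inactive = below 50% or failed in later tests; about a fifth of its hits are not listed in these tables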;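 note: calls also rest on retests at 20 µM and on dose response follow-up; 0% = protein and probe with vehicle and 100% = probe without protein; strong numbers were not always called active; many hits fall short of the cut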
eIF4H inh retest = second read-out of eIF4H inh, no call of its own (marks repeat the call); inhibition, %; compound at 20 µM; confirmation average;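 mean of two retest wells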
PABP polyA inh retest = further read-out of PABP polyA inh, marked with its call; inhibition, %; compound at 20 µM; confirmation repeats;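 mean of two retest wells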
MT1-MMP act inh RFP = further read-out of MT1-MMP act inh, marked with its call; RFP signal change, %; measured here: RFP expression control read;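 0 = vehicle wells; hits needed this value within 50% of zero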
Numbers without * were called inactive; i = inactive; ? = inconclusive; · = not tested or not shown; + = active, no number; & = joins results of further samples. Random draw from the library. Share with any hit: about 3%.

SMILES	UUG fidelity	MT1-MMP act inh	MT1-MMP act inh RFP	CSC inhib	Rce1 inhib	Env fusion inh	PABP polyA inh	eIF4H inh	others
COc1ccccc1N1CCN(c2ncnc3sc(C(=O)NCC4CCCO4)c(C)c23)CC1 (configuration not stated)	0	4	0	-4	i	7	-6	-14
O=C(NC12CC3CC(CC(C3)C1)C2)OCCNC1CCCCC1	·	5	1	22	i	77*	13	-4
Cc1cc(C)n(C(=O)CNC(=O)/C=C/c2ccccc2)n1	-2	0	-1	-12	i	12	-4	63	eIF4H inh retest=10;PABP polyA inh retest=18
O=C(CC1CCCC1)NCCS(=O)(=O)N1CCN(c2ccccc2)CC1	-4	2	2	·	·	7	·	·
COc1ccc(CNCCC(c2ccc(F)cc2)c2ccc(OC(C)C)cc2)cc1OC (configuration not stated)	2	-4	-2	21	i	39	1	-8
CC(C)Cn1cnc2c1c(=O)n(CC(=O)Nc1ccc3c(c1)OCO3)c(=O)n2Cc1ccccc1	-8	-3	4	-9	i	-99	11	8
Cc1cccc(CCNS(=O)(=O)c2ccc(S(=O)(=O)N3CCC(C)CC3)cc2)c1	-16	4	-1	0	i	-52	·	·
Cc1cc2c3c(c1)C1(C(=O)N3C(C)(C)CC2C)C(C#N)=C(N)Oc2n[nH]c(C)c21 (configuration not stated)	·	-7	-8	2	i	11	0	1
CC(C)OC(=O)C1OC1(C)c1ccccc1 (configuration not stated)	-15	-1	5	·	·	6	·	·
O=S(=O)(Oc1ccccc1)c1ccc(Cl)c(Cl)c1	16	2	0	·	·	-15	·	·
CCNC(=S)N=Nc1c(O)n(Cc2ccc(Cl)cc2)c2ccccc12	·	5	1	13	i	·	-1	0
COc1ccc(OC(=O)c2c(C)nn(-c3ccccc3)c2C)cc1	1	1	-6	-2	i	11	2	-7
CS(=O)(=O)N1CCN(C(=O)C(Sc2ccccc2)c2ccccc2)CC1 (configuration not stated)	1	-6	0	-1	i	-23	6	-7
COc1ccc(CNCC(=O)Nc2sccc2C#N)cc1	·	·	·	-5	i	21	2	0
CC1CCC(=O)N(CCOc2ccccc2)CC1 (configuration not stated)	-14	2	-2	-20	i	-33	-6	-1
Cc1nc(-c2ccc(NS(=O)(=O)c3ccccc3)cc2)cs1	·	3	3	0	i	-2	-5	1
CC(=O)Nc1ccc(S(=O)(=O)NCCNS(=O)(=O)c2ccc(NC(C)=O)cc2)cc1	-14	2	1	-10	i	4	-1	-6
CC(c1ccco1)N(C(=O)COc1ccc(Cl)cc1Cl)c1ccccn1 (configuration not stated)	-57	-4	-4	-2	i	·	12	1
N#Cc1cccc(N=c2ssnc2Cl)c1	·	·	·	·	i	6	2	-5
COc1cccc(CNCCO)c1OCc1ccccc1Cl	0	-4	-2	-10	i	-21	-1	2
CCN(Cc1ccccc1)CC(O)COC(c1ccc(OC)cc1)c1ccc(OC)cc1 (configuration not stated)	-4	-1	-2	5	i	-15	8	-8
COc1ccc(NC(=O)NS(=O)(=O)c2ccc(C)cc2)c(OC)c1	-17	2	3	-5	·	·	30	32
N=C(SC1CC(=O)N(c2ccc(F)cc2)C1=O)N1N=C(c2ccccc2)CC1c1ccccc1 (configuration not stated)	·	-8	-6	10	i	10	3	16
Cc1ccc(N2CCN(S(=O)(=O)N3CCCCC3)CC2)cc1Cl	-11	0	-2	15	i	-3	0	-1
COCCN1CCN(Cc2nc(C3(c4ccc(C)cc4)CCCC3)no2)CC1	-14	0	-5	1	i	-1	-9	4
Oc1c(C=C2N=c3ccccc3=N2)sc(=S)n1C1CCCCC1	-10&-14	8&4	5&3	-5&-7	i	-9	15&26	14&2
C#CCN(C(=O)c1ccc(OC2CCN(C(=O)CCOC)CC2)cc1)C1CCCCC1	9	3	-3	5	i	6	2	3
Cn1c(CN2CCC(C(N)=O)CC2)c(C#N)c2ccccc21	-22	3	1	-7	i	-44	9	1
COc1cc([N+](=O)[O-])ccc1NC(=O)CN1CCc2cc(OC)c(OC)cc2C1	4	-2	-5	0	i	5	0	-1
Cn1c(SCC(=O)NC2CCCc3ccccc32)nnc1C1CC1 (configuration not stated)	-21	3	8	·	·	12	·	·
Cc1cccn2c(=O)c(/C=C(\C#N)C(N)=O)c(Oc3ccccc3)nc12	-7	1	0	2	i	-15	?	?
O=C(Nc1ccc(Cl)c(Cl)c1)c1ccccc1NC(=O)C1CC=CCC1C(=O)O (configuration not stated)	-7	-2	8	2	i	-265	13	-5
CC(=O)Nc1ccc(NC(=O)C2Cc3c(-c4ccco4)ccnc3O2)cc1 (configuration not stated)	-9	-3	0	·	·	4	·	·
CN(C)c1ccc(C(=S)N2CCNCC2)cc1	·	-8	0	-14	i	-8	-9	-2
COc1ccccc1CNC(=O)c1cc(-c2ccncc2)nc2c(Cl)cccc12	-12	-10	-1	·	i	27	-9	-11
Cc1ccc(C(=O)CN(CCC(=O)O)C(=O)c2ccncc2)cc1	-12	1	6	-4	·	-52	·	·
CCCc1cc(C(=O)N/N=C/c2cccn2C)cs1	-19	2	0	-8	·	-15	-6	3
Cc1cccc(OCC(O)CN2CCc3ccccc3C2)c1 (configuration not stated)	-5	-4	2	7	i	1	-5	1
Cc1cc(C(C)(C)C)oc1C(=O)O	·	-2	6	-14	i	0	-2	-2
O=P(Cc1ccccc1O)(c1ccccc1)c1ccccc1	·	-8	1	3	i	4	-12	-8
Cc1ccc2c(c1)C(=O)CC1(CCC(C(C)(C)C)CC1)O2 (configuration not stated)	-6	2	-1	-2	i	20	10	6
COc1ccccc1/C=C1\SC(=O)N(CCC(=O)N2CCCCC2CCO)C1=O (configuration not stated)	4	-3	-6	-12	i	17	-2	-11
COc1cc(NS(=O)(=O)c2ccc(NC(=S)NC(=O)/C=C/c3ccc(OC)c(OC)c3)cc2)ncn1	-5	-3	-4	-9	i	8	-6	33
O=C1CC(C(=O)O)S/C(=N\N=C\c2ccc(Br)cc2)N1 (configuration not stated)	-2	3	5	-11	i	-8	16	-9
CC(C)(C)c1cc(NC(=O)c2cccs2)no1	-43	-2	2	16	i	-127	-8	-8

Pulled one by one from above (2):
SMILES	UUG fidelity	MT1-MMP act inh	MT1-MMP act inh RFP	CSC inhib	Rce1 inhib	Env fusion inh	PABP polyA inh	eIF4H inh	others
C#CCN(C(=O)c1ccc(OC2CCN(C(=O)CCOC)CC2)cc1)C1CCCCC1	9	3	-3	5	i	6	2	3
COc1cccc(CNCCO)c1OCc1ccccc1Cl	0	-4	-2	-10	i	-21	-1	2

Additional entries:
SMILES	UUG fidelity	MT1-MMP act inh	MT1-MMP act inh RFP	CSC inhib	Rce1 inhib	Env fusion inh	PABP polyA inh	eIF4H inh	others
C=C(C)CSc1nc2sc3c(c2c(=O)n1-c1ccc(OC)cc1)CCN(C)C3	·	·	·	1	+	5	5	-12
CSCC[C@H](NC(=O)OC(C)(C)C)C(=O)N/N=C/c1c(C)[nH]c(=O)[nH]c1=O	-1	4	5	-12	i	·	1	-10
COc1ccc(Cl)cc1NC(=O)CN(C1CCCCC1)S(C)(=O)=O	-4	-1	-6	-16	i	125*	-14	0
O=C(COC(=O)c1cccs1)NCc1ccccc1	-13	9	11	·	i	·	5	-6
Cc1ccc(NC(=O)CN(C)S(=O)(=O)c2cccs2)cc1C	-26	6	1	-6	i	·	7	-11
Cc1ccc(/C=N/N2CCN(c3ccccn3)CC2)o1	·	1	-1	-10	i	1	1	-2
COCCNC(=O)C(c1ccc(OC)cc1)N(C(=O)Cn1nnc2ccccc21)c1cccnc1 (configuration not stated)	·	6	9	-6	i	7	-4	-11
O=C(CNC(=O)c1ccco1)Nc1ccc(F)cc1	-17	1	2	14	i	6	-1	3
COc1ccc(NS(=O)(=O)c2cc(NC(=O)Cc3cccs3)ccc2C)cc1	·	3	6	18	i	5	-6	-3
Cc1ccc(C)c(OCCC(=O)NNC(=O)Cn2nc(C)cc2C)c1	·	1	-7	9	i	-3	·	·
COc1ccccc1N1C(=O)CC(N2CCN(c3ccc([N+](=O)[O-])cc3)CC2)C1=O (configuration not stated)	-16	3	-3	-3	i	4	-11	-6
COc1ccccc1CNc1nc(NCCOc2ccccc2Cl)c2sccc2n1	2	-3	-23	·	·	72*	·	·
N#Cc1nc(COc2ccccc2F)oc1NCCc1ccccc1	15	-5	-4	6	i	-65	-12	0
CC(=O)c1cccc(NC(=O)c2cnn3ccccc23)c1	-27	-2	0	2	i	-195	-6	1
Cc1nc(CN2CCN(C(=O)NC3(c4ccccc4)CC3)CC2)cs1	-4	1	6	21	i	·	-10	3
COc1cc(OC)c2c(=O)cc(-c3ccccc3)oc2c1	2	3	5	11	i	·	-3	8
COC(=O)c1ccccc1NC(=O)N1CCN(S(C)(=O)=O)CC1	·	4	3	·	i	-9	-6	5
COc1ccc(NC(=O)CN2CCCN(S(=O)(=O)c3ccc(F)cc3)CC2)c(OC)c1	-17	2	0	-3	i	0	30	-3
CCCC(=O)N1CCC1(C)C(=O)Nc1cccc(OC(C)C)c1 (configuration not stated)	-4	-3	1	·	·	10	·	·
CC(=O)Nc1ccc(S(=O)(=O)NCCCN2CCOCC2)cc1	·	0	3	-7	i	3	-2	-8
Cc1ccc(S(=O)(=O)NCC(=O)NC2CCCCCC2)cc1	-9	-3	-4	-10	i	12	-12	3
CCCN1CCC(NC(=O)C2CCCCC2C(=O)O)CC1 (configuration not stated)	-8	-3	1	-8	i	·	3	12
Cc1cc(Cl)ccc1C(=O)C1CCCN(C(=O)c2ccc3ncccc3c2)C1 (configuration not stated)	2	-1	-5	-11	i	16	4	-3
O=C1Nc2cccc3c2N(CCC3)C2=C1CCC2	-7	-6	5	·	·	-12	·	·
CC(C)(C)[C@@H]1COC(=O)[C@H](Cc2ccc(F)cc2)CC/C=C\C[C@@H](CC(=O)NCCO)C(=O)N1	-4	4	6	·	·	8	·	·
COCC(C)NC(=O)C1CCN(S(=O)(=O)c2ccc3ccccc3c2)CC1 (configuration not stated)	·	1	0	1	i	-19	·	·
COc1ccc(CNC(=O)C2CCN(S(=O)(=O)c3ccc(Br)s3)CC2)cc1	-10	-2	-6	-10	·	3	26	-7
O=C(O)c1ccc(/C=N/n2c(C3CCCCC3)n[nH]c2=S)cc1	14	4	5	-3	i	0	9	7
CCN(C(=O)CSc1nnc(-c2ccccc2)n1C)C1CCS(=O)(=O)C1 (configuration not stated)	-16	-1	1	-14	i	11	13	12
O=C(N/N=C/c1cc([N+](=O)[O-])ccc1O)NC12CC3CC(CC(C3)C1)C2	·	1	1	35	i	13	-16	9
Fc1ccc(CN2CCCCCCC2)cc1F	-14	2	3	0	i	-27	13	15
O=[N+]([O-])c1cccc(S(=O)(=O)NCC2CC3CCC2C3)c1 (configuration not stated)	2	0	-2	1	i	16	0	-4
CCOc1cc(CNCc2ccc3c(c2)OCO3)ccc1OC	-2	4	-1	-12	i	11	-3	-10
COc1cccc(CN(C)C(=O)C2CCC(=O)N(Cc3cccc(F)c3)C2)c1 (configuration not stated)	-12	0	0	-7	·	·	13	-11

High-throughput results (PubChem BioAssay)
